Ecoli rRNA inh = inhibits bacterial ribosomal RNA function over humanized ribosomes. E. coli WT GFP vs humanized-ribosome RFP mutants, fluorescence, 24 h; hits give low values; DMSO median 0, no signal -100. GFP signal change (wild-type ribosome), % (test concentration not listed). actives 1.6% (n = 350,000). AID 720706;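 active means significant combined selectivity score with lowered wild-type GFP, culture density cut under 30%, mutant RFP and density less affected; inactive means any of these conditions unmet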; further: one replicate is shown; some compounds called inactive have numbers as strong as hits
HNF4A DNA FP = change in binding of human HNF4 alpha to DNA | actives 0.3% (n = 360,000) | activity change, % at 10 µM | P41235 | HNF4a-FITC DNA binding, fluorescence polarization, 1 h | AID 1224865; in the data active means activity change above about 30%, passing the limit was not always enough;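 further: controls were the assay level and a saturating level of protein; the project sought stronger binding though the title names inhibitors; some compounds called inactive have numbers as strong as hits; positive values seem to mean higher polarization but the record does not say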
Target sequence (P41235 whole entry, looked up): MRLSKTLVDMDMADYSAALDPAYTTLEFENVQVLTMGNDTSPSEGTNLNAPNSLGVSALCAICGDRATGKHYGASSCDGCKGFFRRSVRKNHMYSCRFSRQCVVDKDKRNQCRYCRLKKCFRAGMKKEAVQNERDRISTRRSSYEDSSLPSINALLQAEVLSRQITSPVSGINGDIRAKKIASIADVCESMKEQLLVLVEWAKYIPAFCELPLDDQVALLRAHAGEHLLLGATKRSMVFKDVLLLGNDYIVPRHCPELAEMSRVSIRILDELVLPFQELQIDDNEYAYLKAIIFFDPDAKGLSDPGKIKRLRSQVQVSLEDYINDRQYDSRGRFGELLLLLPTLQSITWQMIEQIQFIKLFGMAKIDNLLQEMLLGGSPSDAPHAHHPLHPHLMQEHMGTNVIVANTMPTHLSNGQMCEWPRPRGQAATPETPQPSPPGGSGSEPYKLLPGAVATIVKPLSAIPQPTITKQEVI
ALR inh = blocks human ALR sulfhydryl oxidase activity; P55789; purified ALR, DTT oxidation, H2O2 HRP-luminol luminescence; inhibition, % (no concentration beside the values); actives 3.8% (n = 290,000);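 active means mean and each replicate at 75% or more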;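 further: stock transfer was 7.5 nL into about 7.5 µL; 0% = neutral wells and 100% = wells with inactivated enzyme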
Target sequence (P55789 whole entry, looked up): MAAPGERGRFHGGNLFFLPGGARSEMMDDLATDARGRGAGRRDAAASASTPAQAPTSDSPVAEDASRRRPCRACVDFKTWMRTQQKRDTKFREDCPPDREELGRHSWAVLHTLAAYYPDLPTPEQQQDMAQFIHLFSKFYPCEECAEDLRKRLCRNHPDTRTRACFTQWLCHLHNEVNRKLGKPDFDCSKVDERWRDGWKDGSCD
FGF22 binding = shifts melting point of recombinant human FGF22 | calls only at 9.99 µM | actives 1.5% (n = 340,000) | Q9HCT0 | AID 651658 | recombinant FGF22 thermal shift, SYPRO orange fluorescence; percent of sucrose octasulfate shift, DMSO zero;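 active means melting point raised past a set limit in the mean and every replicate; three in four hits are not shown here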
Target sequence (Q9HCT0 whole entry, looked up): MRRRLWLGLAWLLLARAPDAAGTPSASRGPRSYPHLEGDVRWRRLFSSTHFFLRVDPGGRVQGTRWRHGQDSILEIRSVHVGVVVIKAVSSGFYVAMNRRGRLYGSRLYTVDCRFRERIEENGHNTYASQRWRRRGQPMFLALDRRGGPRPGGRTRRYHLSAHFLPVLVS
Ecoli growth = inhibitors of Escherichia coli growth. OD600, 23 h; hits give low values. OD600 absorbance (no concentration beside the values). actives 0.21% (n = 330,000). AID 1053175;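 active means OD600 absorbance below the run mean of sample wells minus 3.6 SD, in any replicate, cut at about 0.56 in these data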;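 further: stock transfer was 300 nL into about 60 µL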
AF4-AF9 inh = MLL-AF4/AF9 protein interaction inhibition; AlphaScreen, biotin-AF4 peptide binding to FLAG-AF9; actives 0.47% (n = 350,000); inhibition, % at 10 µM; P42568; AID 651704;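 active means every replicate reaching a set inhibition limit, whatever the replicate mean, cut at about 25% in these data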;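 further: 0% = plate neutral control median and 100% = total signal loss; the record names both 10 and 1 µM as test concentration; the first replicate is given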
Vif A3G = inhibitors of Vif binding to APOBEC3G peptide, primary screen, biochemical, TR-FRET, GST-Vif 1-94, biotin-A3G peptide, dose response retest (AID 1117319); TR-FRET GST-Vif / biotin-A3G peptide binding; higher % means a stronger effect; test concentration not given here; strong numbers were not always called active; inhibition, %, or IC50 in µM where a hit was titrated; actives 0.57% (n = 260,000);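 active means above the screen mean plus three standard deviations and confirmed in dose response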;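 further: Vif residues 1-94 fused to GST binding biotinylated APOBEC3G peptide 110-148; 0% = full assay without inhibitor and 100% = GST in place of GST-Vif; retest series ran down from 100 µM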
Ecoli rRNA inh OD600 = recorded beside Ecoli rRNA inh, whose call it bears; OD600 change, %; measured here: OD600 growth;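 optical density of the mix in the first replicate; 0 = DMSO median and -100 = no signal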
Ecoli rRNA inh RFP = recorded beside Ecoli rRNA inh, whose call it bears; RFP signal change, %; measured here: RFP humanized mutant strains;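 first replicate; 0 = DMSO median and -100 = no signal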
An asterisk follows results filed as active; i = inactive; . = not tested or not shown.

Ecoli rRNA inh OD600,AF4-AF9 inh,Ecoli rRNA inh,FGF22 binding,Vif A3G,ALR inh,HNF4A DNA FP,Ecoli growth,Ecoli rRNA inh RFP,SMILES
-4,-3.2,-9,i,.,.,2.2,0.66,-1.4,O=C(c1cc(-c2cccc(Cl)c2)on1)N1CCCC1
.,.,.,.,-4%,.,3.0,0.7,.,CCCCC(=O)Nc1sc(C(=O)N(CC)CC)c(C)c1C(=O)OC
.,.,.,.,13%,1,-2.8,0.68,.,Cc1cccc2c1N1C(=O)c3c(C(=O)O)cccc3C1CC2C (stereo not drawn)
1,1.4,2,i,.,.,.,.,1.1,Cc1noc(C)c1NC(=O)NCC[C@@H]1CC[C@H](NC(=O)c2ccccc2)[C@@H](CO)O1
-8,0.3,2,i,.,.,.,.,-0.2,C[C@H](NC(=O)C[C@H]1C[C@@H]2c3cc(NC(=O)NC4CCCCC4)ccc3O[C@@H]2[C@H](CO)O1)c1ccccc1
-1,-2.5,1,i,.,.,.,.,0.8,CO[C@H]1CN(C)C(=O)c2ccc(NS(=O)(=O)c3ccccc3)cc2OC[C@H](C)N(C)C[C@@H]1C
8,-1.9,6,i,-10%,-5,-1.3,.,1.4,C/C(=N\NC(=O)c1ccc(O)cc1)c1cc2ccccc2o1
-22,-1.4,-12,i,2%,-4,1.8,0.65,-1.4,Cc1noc(C)c1C(=O)NC(C)C12CC3CC(CC(C3)C1)C2 (stereo not drawn)
.,.,.,.,-4%,1,-3.5,0.73,.,COc1cc(OC)cc(-c2nc3nc(C)c(CCC(=O)NCc4ccco4)c(C)n3n2)c1
-11,0.7,-11,i,.,-2,3.4,0.69,2.7,CC(NC(=O)c1ccccc1F)C12CC3CC(CC(C3)C1)C2 (stereo not drawn)

Single records (already shown):
CCCCC(=O)Nc1sc(C(=O)N(CC)CC)c(C)c1C(=O)OC across the screens: Ecoli rRNA inh OD600 = .; AF4-AF9 inh = .; Ecoli rRNA inh = .; FGF22 binding = .; Vif A3G = -4%; ALR inh = .; HNF4A DNA FP = 3.0; Ecoli growth = 0.7; Ecoli rRNA inh RFP = .
CC(NC(=O)c1ccccc1F)C12CC3CC(CC(C3)C1)C2 (stereo not drawn) across the screens: Ecoli rRNA inh OD600 = -11; AF4-AF9 inh = 0.7; Ecoli rRNA inh = -11; FGF22 binding = i; Vif A3G = .; ALR inh = -2; HNF4A DNA FP = 3.4; Ecoli growth = 0.69; Ecoli rRNA inh RFP = 2.7

Later entries:
Ecoli rRNA inh OD600,AF4-AF9 inh,Ecoli rRNA inh,FGF22 binding,Vif A3G,ALR inh,HNF4A DNA FP,Ecoli growth,Ecoli rRNA inh RFP,SMILES
15,0.0,14,i,-2%,.,5.1,0.67,4.8,COc1ccc(S(=O)(=O)CCc2nnc(NC(=O)c3ccc(F)cc3)s2)cc1
6,-7.2,-4,i,.,99*,-27,.,13,N#Cc1c(SCC(=O)Nc2nc3ccc(Br)cc3s2)sc2c(O)cc(=O)[nH]c12
-12,2.7,4,i,.,.,.,.,11,COc1cccc(C#Cc2ccc3c(c2)O[C@@H](CN(C)C(C)=O)[C@@H](C)CN([C@@H](C)CO)S3(=O)=O)c1
4,-0.9,12,i,1%,0,0.9,0.69,-1.6,COC(=O)[C@]1(C)N[C@H](CN(C)S(=O)(=O)c2ccccc2)[C@@H]2C(=O)N(Cc3ccccc3)C(=O)[C@@H]21
.,.,.,.,14%,98*,7.4,0.68,.,CC(C)c1ccc(Nc2nnc(SCC(=O)c3nnc(-c4ccccc4)o3)s2)cc1
-58,-3.4,-32,i,-7%,-17,-0.4,0.64,3.6,CCN(CC(=O)Nc1ccccc1C(F)(F)F)C(=O)c1cc2c(s1)CCCCC2
12,-14,0,i,-4%,50,4.5,0.66,-1.6,CCOc1cc(/C=C/c2cccc[n+]2C)ccc1O
7,-4.8,4,i,1%,.,1.6,.,1.4,O=S(=O)(O)Sc1ccccc1
5,5.8,10,i,.,-7,2.8,0.67,-2.7,Cc1cc(C(=O)Nc2nc(C)c(C(=O)N(C)C)s2)ccc1[N+](=O)[O-]
14,2.1,11,i,-1%,0,-4.5,0.73,4.1,O=C(CC1(O)C(=O)Nc2ccccc21)c1ccccc1 (stereo not drawn)

Entries shown so far that have a furan ring, fused or not:
Ecoli rRNA inh OD600,AF4-AF9 inh,Ecoli rRNA inh,FGF22 binding,Vif A3G,ALR inh,HNF4A DNA FP,Ecoli growth,Ecoli rRNA inh RFP,SMILES
8,-1.9,6,i,-10%,-5,-1.3,.,1.4,C/C(=N\NC(=O)c1ccc(O)cc1)c1cc2ccccc2o1
.,.,.,.,-4%,1,-3.5,0.73,.,COc1cc(OC)cc(-c2nc3nc(C)c(CCC(=O)NCc4ccco4)c(C)n3n2)c1

(cont.)
Ecoli rRNA inh OD600,AF4-AF9 inh,Ecoli rRNA inh,FGF22 binding,Vif A3G,ALR inh,HNF4A DNA FP,Ecoli growth,Ecoli rRNA inh RFP,SMILES
8,-5.3,-3,i,12%,26,-1.4,0.76,0.9,CC(=O)Nc1ccc(NC(=O)c2oc3cc(C)c(C)cc3c2C)cc1
9,1.8,5,i,2%,.,-7.2,0.68,0.5,Cc1ccc2c(c1)c1c(n2CC(O)CNC(C)(C)C)CCCC1 (stereo not drawn)
8,-0.5,12,i,.,-3,2.3,0.71,-1.2,O=C(COc1ccc([N+](=O)[O-])cc1)NNC(=O)Nc1ccccc1F
7,-2.6,0,i,.,.,.,.,-2.3,O=C(C[C@@H]1C[C@@H]2c3cc(NC(=O)Cc4ccncc4)ccc3O[C@@H]2[C@H](CO)O1)NCC1CC1
18,-0.8,11,i,.,.,0.8,.,0.0,COCCN1C[C@@H](CO)O[C@@H](n2cnc3c(N4CCCC4)ncnc32)C1
.,.,.,.,1%,7,.,0.71,.,Cc1noc(C)c1S(=O)(=O)N1CCC(C(=O)N2CCN(c3ccc(F)cc3)CC2)CC1
12,0.9,5,i,.,.,.,.,-3.1,CC(=O)N1[C@H](C(=O)NC2Cc3ccccc3C2)[C@@H](CO)[C@@H]2Cn3c(ccc(-c4ccncc4)c3=O)[C@@H]21
7,-11,1,i,.,3,5.5,0.72,-3.6,O=C(NC1CC1)c1sc2ccccc2c1Cl
-2,-0.6,3,i,1%,-1,2.0,0.73,0.7,O=C(CCN1C(=O)C2C3CCC(C3)C2C1=O)Nc1ccccc1C(F)(F)F (stereo not drawn)
.,.,.,.,2%,37,8.6,0.67,.,COc1cccc(NC(=O)CSc2nnc(C)s2)c1

The listing continues.
Ecoli rRNA inh OD600,AF4-AF9 inh,Ecoli rRNA inh,FGF22 binding,Vif A3G,ALR inh,HNF4A DNA FP,Ecoli growth,Ecoli rRNA inh RFP,SMILES
6,1.6,0,.,.,.,-3.5,.,-0.7,CCOC1=C2[C@@H](CN(S(=O)(=O)c3ccc(C)cc3)[C@H]2c2ccccc2Cl)[C@H]2C(=O)N(C(C)(C)C)C(=O)[C@H]2C1
7,-2.1,1,i,.,.,.,.,-1.6,O=C(C[C@H]1C[C@H]2c3cc(NC(=O)CC4CC4)ccc3O[C@H]2[C@H](CO)O1)NCc1ccccc1
-11,4.1,-13,i,.,.,1.4,0.68,-1.5,CNC(=S)Nc1cccc(-c2cnc3ccccc3n2)c1
2,-0.6,5,i,-22%,.,3.4,0.69,-3.9,O=C(Nc1cccc(S(=O)(=O)N2CCCCC2)c1)c1ccc(N2CCCC2=O)cc1
-8,-14,4,i,2%,-108,-3.1,0.76,19,Cc1noc(C)c1S(=O)(=O)N(CC(=O)N1CCc2ccccc21)c1ccc(C(C)C)cc1
-5,3.7,-1,i,.,.,.,.,4.5,C[C@@H]1CN([C@@H](C)CO)C(=O)Cc2cc(NS(=O)(=O)c3cn(C)cn3)ccc2O[C@@H]1CN(C)Cc1ccc(-c2ccccc2)cc1
-3,-1.5,1,i,0%,-9,0.2,0.72,-3.4,Cc1cccc(S(=O)(=O)NNC(=O)c2cc(-c3ccc(F)cc3)nc3ccccc23)c1
.,.,.,.,2%,11,9.3,0.68,.,CC(C)(C)c1csc(NC(=O)c2ccc3nccnc3c2)n1
1,0.0,-6,i,.,.,2.1,.,-0.9,Cn1nc(C(C)(C)C)cc1N1C(=O)CCC1(C)C(=O)Nc1ccc2ccccc2c1 (stereo not drawn)
-6,-0.2,-2,i,.,.,.,.,-0.4,O=C(NC[C@H]1[C@H](c2ccccc2)[C@H](CO)N1Cc1cccnc1)c1ccccn1

The results go on:
Ecoli rRNA inh OD600,AF4-AF9 inh,Ecoli rRNA inh,FGF22 binding,Vif A3G,ALR inh,HNF4A DNA FP,Ecoli growth,Ecoli rRNA inh RFP,SMILES
15,-4.6,7,i,.,.,.,.,-3.3,C/C=C/c1cnc2c(c1)C(=O)N([C@@H](C)CO)C[C@@H](C)[C@H](CN(C)C(=O)c1cnccn1)O2
16,-2.0,10,i,1%,.,3.0,.,-1.1,CN(C)/C=N/c1nccc(-c2cccs2)n1
4,2.1,6,i,-12%,2,-0.3,0.65,-8.1,Fc1ccc(NC(=S)NC2CC3CCC(C2)N3Cc2ccco2)cc1 (stereo not drawn)
3,5.1,2,i,.,.,.,.,-0.9,C[C@@H]1CCCCO[C@H](CN(C)C(=O)Nc2ccc3c(c2)OCO3)[C@H](C)CN([C@@H](C)CO)C(=O)c2cc(NC(=O)Nc3ccccc3)ccc2O1
-39,3.8,9,i,.,.,.,.,31,C[C@@H]1CN([C@@H](C)CO)C(=O)c2cc(NC(=O)Nc3ccc(C(F)(F)F)cc3)ccc2O[C@@H]1CN(C)Cc1ccncc1
-5,5.1,-9,i,.,-16,-2.1,0.68,1.4,CCOC(=O)C1(Cc2cccc(OC)c2)CCN(Cc2ccc3c(c2)OCCO3)CC1
22,-2.0,25,i,.,0,2.3,0.7,3.1,Cc1cc(C)nc(Nc2n[nH]c(-c3ccccc3Cl)n2)n1
5,1.9,14,i,13%,-10,0.8,0.7,2.0,Cc1ccc(C)c2nc(Cl)c(C3NC(=O)c4ccccc4N3)cc12 (stereo not drawn)
.,.,.,.,-6%,40,-1.4,0.71,.,COc1ccc(N2CCN(c3nc(Cl)nc(N4CCOCC4)n3)CC2)cc1
11,0.7,10,i,2%,.,1.7,0.68,2.5,COC(=O)c1scc(C)c1NC(=O)/C=C/C(=O)O

Further records:
Ecoli rRNA inh OD600,AF4-AF9 inh,Ecoli rRNA inh,FGF22 binding,Vif A3G,ALR inh,HNF4A DNA FP,Ecoli growth,Ecoli rRNA inh RFP,SMILES
.,.,.,.,-5%,-4,2.2,.,.,CC12CCC(C/C1=N\OC(=O)c1ccc(F)cc1)C2(C)C (stereo not drawn)
0,.,5,.,4%,-17,-5.1,0.72,-0.5,CC1(C)Cc2c(ccc3ccccc23)C(c2cc3ccccc3oc2=O)=N1
.,.,.,.,10%,2,0.5,0.7,.,COc1ccccc1NS(=O)(=O)c1ccc2oc(SC3CCOC3=O)nc2c1 (stereo not drawn)
15,-1.9,10,i,.,-18,4.1,0.75,0.2,COc1ccc(CCC(=O)NCCNC(=O)CCc2ccc(OC)cc2)cc1
-4.7*,-2.3,-28*,i,0%,.,-1.9,0.67,4.9*,O=C(NCc1ccc2c(c1)OCO2)c1sccc1Br
-12,5.9,-8,i,.,.,.,.,-1.7,COc1ccc(-c2ccc3c(c2)O[C@@H](CN(C)C(=O)Nc2ccccc2F)[C@@H](C)CN([C@@H](C)CO)S3(=O)=O)cc1
6,1.7,1,i,.,.,.,.,-1.6,CO[C@@H]1CN(C)C(=O)c2ccc(NC(=O)Nc3ccccc3)cc2OC[C@H](C)N(C(=O)Nc2c(C)noc2C)C[C@@H]1C
.,.,.,.,13%,-11,-1.7,0.72,.,O=S(=O)(NCc1ccc2c(c1)OCO2)c1cccc2cccnc12
3,-0.8,3,i,.,-14,1.7,0.78,-1.7,CCC(=O)Nc1nc2ccc(NC(=O)COc3ccccc3)cc2s1
-43,-0.2,-43,i,.,.,14,.,-11,Clc1ccc(-c2cccc3nccn23)c(Cl)c1

A portion of the library, so the mix of outcomes need not match the whole.
